Biofilm kill mix: mixtures killing C. albicans biofilm | hit rate 0.02% among 120,000 | inhibition, % at 7.6 µM | C. albicans biofilm persisters + clotrimazole, fluorescence viability; primary screen in compound mixtures of four per well | AID 1242;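 active means inhibition above 30.3% in the primary screen of four-compound pools, then above 30% when the compound was retested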;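 further: compounds exposed to preformed 24 h biofilms for 48 h; the number belongs to the whole pool; some results filed as inactive read as strong as hits; inactives centre near 12; 0% = biofilm with clotrimazole alone and 100% = kill control; retested singly at about 60 µM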
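Test system: C. albicans biofilms. Buffer or medium: RPMI/MOPS medium, pH 7.0. Timing: 48 h compound exposure at 37 °C. Technique: Alamar Blue fluorescence. Evaluation: percent inhibition of biofilm viability.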
Starred values were filed as active, the others as inactive. Not all compounds are listed, so the mix of outcomes need not match the whole.

SMILES | Biofilm kill mix
O=C(Nn1c(-c2ccncc2)nc2ccccc2c1=O)c1ccccc1Br | 8
Nc1ncnc2c1C1(CCCCC1)Cc1ccccc1-2 | 15
CCC1(C)NC(=O)N(/N=C/c2cc(OC)c(O)c(OC)c2)C1=O (stereo unspecified) | 14
COc1ccc(C)cc1NC(=O)C(Sc1nnc(Nc2ccccc2F)s1)c1ccccc1 (stereo unspecified) | 12
Cc1cc(C)cc(NC(=S)NCCc2ccc(S(N)(=O)=O)cc2)c1 | 7
CSc1n[nH]c(NCc2ccc(C)cc2)n1 | 7
CC(=O)Nc1ccc(C(=O)CSc2nnnn2C2CCCC2)cc1 | 6
O=C(O)[C@H](Cc1ccccc1)NC(=O)N1CCN(c2ccccc2)CC1 | 25
C/C(=N/NC(=O)c1cccc(N2CCCC2=O)c1)c1ccncc1 | 17
CC1(C)C(C=C(Cl)Cl)C1C(=O)N1CCN(Cc2ccccc2)CC1 (stereo unspecified) | -10
COCCN1CCN(c2cc(-c3ccccc3)nc3cc(-c4cccc(F)c4)nn23)CC1 | 11
COc1ccc2[nH]cc(CCNS(=O)(=O)Cc3ccccc3)c2c1 | 8
CCN1CCN(Cc2c(O)ccc3c2O/C(=C\C=C\c2ccccc2OC)C3=O)CC1 | 8
COc1cccc(C(=O)Nc2nc3ccc(S(C)(=O)=O)cc3s2)c1 | 19
COc1ccccc1N1CCN(C(c2cccs2)C(C)NC(=O)c2cccs2)CC1 (stereo unspecified) | 19
COC(=O)c1ccc(COC(=O)CNS(=O)(=O)c2ccc(C)cc2)cc1 | 15
O=C(OCc1cc(=O)n2c(n1)sc1ccccc12)c1ccc(O)cc1O | 16
O=C(Nc1nnc(Cc2ccc([N+](=O)[O-])cc2)s1)c1ccc2c(c1)OCO2 | 12
Cc1nc2c(C#N)c(-c3ccc(Cl)cc3)ccn2n1 | 11
CC(=C\c1ccccc1)/C=C1/SC(=O)N(CCCC(=O)Nc2ccc(C(=O)O)cc2)C1=O | 15
NC(=O)CSc1nnc(NC(=O)c2cccc(S(=O)(=O)N3CCCCC3)c2)s1 | 1
O=[N+]([O-])c1cc(O)c2ncccc2c1 | 16
Cc1cccc(-n2ccnc2SCC(=O)N2CCCc3ccccc32)c1C | 9
Cc1ccc(C(=O)N2CCCC2)cc1S(=O)(=O)Nc1cccc(C)c1C | 14
O=C(NCCC(c1ccccc1)c1ccco1)c1cccs1 (stereo unspecified) | 9
(listing goes on)
SMILES | Biofilm kill mix
O=C(Nc1nnc(SCc2ccc(Cl)cc2)s1)c1cnccn1 | 20
NC(=O)NNC(=S)Nc1cccc2ccccc12 | 3
Cc1nc2ccccc2nc1OCC(=O)Nc1ccccc1 | 19
CCCCOC(=O)/C(=C\c1ccc([N+](=O)[O-])o1)NC(=O)c1ccccc1 | 13
COc1ccc(F)cc1C(=O)C1CCCN(C(=O)CCN2CCCCO2)C1 (stereo unspecified) | -2
COc1ccc(F)cc1C(=O)C1CCCN(Cc2c[nH]c3ccccc23)C1 (stereo unspecified) | 15
CC(=O)c1ccc(N2CCN(C(=O)c3ccc(Cn4c(=S)[nH]c5ccc(N6CCOCC6)cc5c4=O)cc3)CC2)cc1 | 15
O=S(=O)(NCC(c1ccco1)N1CCN(c2ccc(F)cc2)CC1)c1ccc2c(c1)OCCO2 (stereo unspecified) | 20
COC(=O)C1=C(C(=O)OC)[C@@H]2N(Cc3ccccc3)c3ccccc3[C@@]23C[C@@H](C(=O)OC)N=C3N1 | 17
C=CCN(C)NC(=S)Nc1ccccc1 | 9
CCn1nc(C(=O)O)c(=O)c2cc3c(cc21)OCO3 | -8
Nc1cc(C(=O)N/N=C/c2cccc([N+](=O)[O-])c2)n[nH]c1=O | 21
Cc1ccc(NC(=O)CN(C)Cc2ccc(F)cc2)c([N+](=O)[O-])c1 | 7
CC(=O)NC1(C(F)(F)F)C(=O)Nc2c1c(=O)[nH]c(=O)n2-c1ccccc1 (stereo unspecified) | 20
O=C(Nc1ccccc1)O/N=C1/CCCc2occc21 | 22
CCc1ccc2nc(NC(=O)Cn3cnc4ccccc4c3=O)sc2c1 | 23
O=S(=O)(Nc1ccc2c(c1)nc1n2CCN(Cc2ccccc2)C1)c1ccccc1 | 20
O=[N+]([O-])c1c(NCCCO)cc(Sc2ccc(Cl)cc2)c2nonc12 | 28
Cc1ccc(-n2c(O)c(C=NCc3ccccn3)c3ccccc3c2=O)cc1C | 13
CC(=O)N1CC2([N+](=O)[O-])CN(C(C)=O)CC([N+](=O)[O-])(C1)C2(C)C | 5
COCCOC(=O)C1=C(C)N(c2ccccc2)C(=O)NC1c1cccc([N+](=O)[O-])c1 (stereo unspecified) | 12
COc1cccc(CN2CCN(S(=O)(=O)c3ccc(NC(C)=O)cc3)CC2)c1OC | 12
CSc1sc(C(=O)Nc2ccc(F)cc2F)c2c1C=CCC2 | 19
COc1ccc(C(=O)NCc2nnc(SCC(=O)N3CCC(C)CC3)o2)cc1 | 4
Cc1sc2nc(-c3ccncc3)[nH]c(=O)c2c1-c1ccccc1 | 16
Further entries:
SMILES | Biofilm kill mix
NC(=O)N/N=C(/CCCCCC/C(=N\NC(N)=O)c1ccccc1)c1ccccc1 | 10
CC(=O)Nc1ccc(S(=O)(=O)Nc2cccn(Cc3ccc(C)cc3)c2=O)cc1 | 12
CC1CC(C)CN(C(=S)SCc2nc(N)nc(Nc3ccccc3)n2)C1 (stereo unspecified) | 21
O=C(NCCCN1CCCC1=O)c1cc(-c2ccc3c(c2)OCO3)nc2ccccc12 | 9
O=C(Nc1ncc(Cc2ccccc2Cl)s1)C1CCCO1 (stereo unspecified) | 10
COc1cc(/C=C(\C#N)C(=O)Nc2ccccc2C(=O)O)cc(Cl)c1OC | -5
O=C1CSC2(N1)C1CC3CC(C1)CC2C3 (stereo unspecified) | 23
COc1ccc(/C(O)=C2/C(=O)C(=O)N(c3ccccn3)C2c2ccc(OC)c(OC)c2)cc1 (stereo unspecified) | 8
CC(=O)c1ccc(-c2ccc(/C=C(/Sc3n[nH]c(C)n3)C(=O)O)o2)cc1 | 22
C[C@H]1CCC[C@@]2(O[C@@H](CCO)C[C@@H](O)[C@@H]2O)O1 | 13
COc1ccc(S(=O)(=O)N2CCN(C3Cc4ccccc4C3)CC2)cc1 | 1
CC1=CC(C)(C)NC(=S)N1c1ccccc1C | -1
CC1CCC2(CC1)NC(=O)N(NC(=O)CCl)C2=O (stereo unspecified) | 6
O=C(Nc1ccc(N2CCOCC2)cc1)C1CC(=O)N(c2ccc(Cl)cc2)C1 (stereo unspecified) | 14
COc1ccccc1-n1c(N)cc(=O)nc1SCC(=O)Nc1cc(C)on1 | 0
O=C(/C=C\c1ccccc1[N+](=O)[O-])Nc1ccccc1 | 11
CCC(CC)C(=O)OCC(=O)Nc1cccc(S(=O)(=O)N(C)c2ccccc2)c1 | 10
CCOC(=O)C1=C(C)NC(=O)NC1c1ccc(OC(=O)c2ccco2)cc1 (stereo unspecified) | 12
Cc1ccc(OCc2ccc(Br)cc2)c([N+](=O)[O-])n1 | 13
C[n+]1c(/C=C/c2ccc3c(c2)OCO3)ccc2ccccc21 | 25
O=C1/C(=C2/NCCN2C2CC(=O)N(c3ccccc3)C2=O)CC/C1=C\c1ccccc1 (stereo unspecified) | 6
O=C(CN1CCOCC1)N1CCCc2ccccc21 | 11
Cc1ccc2c(c1)C1C=CCC1C(C(=O)O)N2 (stereo unspecified) | 7
CCC(C)(C)NC(=O)c1ccc(S(=O)(=O)N2CCCCCC2)cc1 | 14
Cc1[nH]c2ccccc2c1SCc1n[nH]c(=S)n1C | 27
More records:
SMILES | Biofilm kill mix
O=C(CC1S/C(=N/N=C/c2ccco2)NC1=O)Nc1ccccc1 (stereo unspecified) | 16
Nc1ccccc1N=Cc1ccc(-c2cccc(Cl)c2)o1 | 8
CCn1c(N2CCN(S(=O)(=O)c3ccc(F)cc3)CC2)nc2ccccc21 | 20
COC(=O)C1=C(C)NC(=O)/C1=C\c1cc(C)n(-c2ccccc2F)c1C | 6
C=C(C)CC1(NC(C)c2ccccc2)CCCCC1 (stereo unspecified) | 13
Cc1ccc(S(=O)(=O)N2CCN(CC(O)c3ccccc3)CC2)cc1 (stereo unspecified) | 10
COc1ccc(NC(=O)Cn2c(C)cc(=O)c3ccccc32)cc1 | 20
COc1ccc(-c2nc(NC(=O)c3ccc(OCC(=O)Nc4ccc(F)cc4)c(OC)c3)sc2C)cc1 | 9
CC1CCCC(C)N1/N=C/c1ccc(N(C)C)cc1 (stereo unspecified) | 3
COCCNC(=O)c1ccc(C(=O)C(=O)c2ccccc2)cc1 | 19
COc1ccc(OC)c(-n2c(=S)[nH]c3cc(C(=O)N4CCCCC4)ccc3c2=O)c1 | 20
CCC(=O)Nc1nnc(/C=C/c2ccc(OC)cc2)s1 | 17
CCO/C=C1\SC(=S)N(c2ccc(Cl)cc2)C1=O | 18
O=C(NC(=S)NCc1cccnc1)c1cccc2ccccc12 | 16
CCOc1ccc(NC(=O)C2CCCN(S(=O)(=O)c3c(C)n[nH]c3C)C2)cc1 (stereo unspecified) | 11
O=C(CSc1nc2ncccc2[nH]1)NCCc1ccccc1 | -1
O=C(NC1=NCCS1)c1ccc([N+](=O)[O-])cc1Cl | -2
O=C(Nn1c(-c2ccc(Cl)cc2)nc2ccccc2c1=O)c1cccnc1Cl | 18
Cc1ccc(N(CC(=O)N/N=C/c2cc(C)n(-c3ccccc3C)c2C)S(C)(=O)=O)cc1 | 3
Cc1ccc(-n2cc(CN(C)CCc3cn[nH]c3)c(-c3cccc(C)c3)n2)cc1 | 10
Cc1nc(C)c(-c2nnc(-c3ccc(C(C)(C)C)cc3)o2)cc1C(=O)NN | 12
O=C(Cc1csc(Nc2nc(=S)[nH]c3ccccc23)n1)NCCCN1CCN(c2cccc(Cl)c2)CC1 | 16
CC(C)N(C(=O)CN1C(=O)C(=O)c2ccccc21)c1ccccc1 | 27
Cc1cc2nc(SCC(=O)Nc3ccccc3C(=O)O)[nH]c2cc1C | 9
COc1ccc2nc(SCC(=O)Nc3ccc4c(c3)CCC4)[nH]c2c1 | 6

A draw from above in order of length of the SMILES, ascending:
SMILES | Biofilm kill mix
CC1CCCC(C)N1/N=C/c1ccc(N(C)C)cc1 (stereo unspecified) | 3
CCC(=O)Nc1nnc(/C=C/c2ccc(OC)cc2)s1 | 17
O=C(NC(=S)NCc1cccnc1)c1cccc2ccccc12 | 16
O=C(NC1=NCCS1)c1ccc([N+](=O)[O-])cc1Cl | -2
COc1ccc(NC(=O)Cn2c(C)cc(=O)c3ccccc32)cc1 | 20
O=C(CC1S/C(=N/N=C/c2ccco2)NC1=O)Nc1ccccc1 (stereo unspecified) | 16
Cc1cc2nc(SCC(=O)Nc3ccccc3C(=O)O)[nH]c2cc1C | 9
Cc1ccc(S(=O)(=O)N2CCN(CC(O)c3ccccc3)CC2)cc1 (stereo unspecified) | 10
O=C(Nn1c(-c2ccc(Cl)cc2)nc2ccccc2c1=O)c1cccnc1Cl | 18
COC(=O)C1=C(C)NC(=O)/C1=C\c1cc(C)n(-c2ccccc2F)c1C | 6
CCOc1ccc(NC(=O)C2CCCN(S(=O)(=O)c3c(C)n[nH]c3C)C2)cc1 (stereo unspecified) | 11
COc1ccc(OC)c(-n2c(=S)[nH]c3cc(C(=O)N4CCCCC4)ccc3c2=O)c1 | 20
Cc1ccc(N(CC(=O)N/N=C/c2cc(C)n(-c3ccccc3C)c2C)S(C)(=O)=O)cc1 | 3
COc1ccc(-c2nc(NC(=O)c3ccc(OCC(=O)Nc4ccc(F)cc4)c(OC)c3)sc2C)cc1 | 9
O=C(Cc1csc(Nc2nc(=S)[nH]c3ccccc23)n1)NCCCN1CCN(c2cccc(Cl)c2)CC1 | 16

Other structures follow:
SMILES | Biofilm kill mix
Cc1cccc(NC(=S)NCc2ccc3c(c2)OCO3)c1 | 22
C=CCNC(=S)Nc1ccc(F)cc1F | 17
COc1ccccc1N1CCN(C(=O)C(=O)N/N=C/c2ccccc2F)CC1 | 19
CCC1CCCCN1C(=O)CSc1nc2c(c(=O)n(C)c(=O)n2C)n1C (stereo unspecified) | 22
O=C1/C(=C/c2coc3ccc(O)cc3c2=O)SC(=S)N1c1ccccc1 | 23
O=C(Nc1cc(Oc2ccc(Cl)cc2)cc([N+](=O)[O-])c1)c1ccco1 | 27
COc1cccc(CN2CCNC(=O)C2CC(=O)N(C)Cc2cnccn2)c1OC (stereo unspecified) | 1
C=CCN(CC=C)S(=O)(=O)c1ccc(C(=O)Nc2nc3c(s2)CCc2ccccc2-3)cc1 | 14
Cc1cccc(OC2CCN(Cc3nc(CC4CC4)no3)CC2)c1 | -11
Cc1ccc(Cl)cc1NC(=S)N1CCC(c2ccccc2)C1 (stereo unspecified) | 2
CCOC(=O)C1CCCN(C(=O)c2cc(-c3ccc(C)cc3)nc3ccccc23)C1 (stereo unspecified) | 13
Nc1nc(NCc2ccco2)nc(N2CCCCCC2)c1[N+](=O)[O-] | 12
Cc1c(-c2ccccc2)oc2c(C(=O)OCC(=O)Nc3cccc(F)c3)cccc2c1=O | 17
C=CCOc1ccc(/C=C2\C(=N)N3N=C(S(=O)(=O)CC)SC3=NC2=O)cc1OC | 20
CCCNC(=S)N1CCN(C(c2ccccc2)c2ccccc2)CC1 | -10
N=c1c2c3c(sc2nc2n1CCCCC2)CCCC3 | 20
CCOc1cc(/C=C2\C(=O)NN(c3ccccc3)C2=O)cc([N+](=O)[O-])c1O | 21
CC1=C(C(=O)OCc2ccccc2)C(c2ccc(Cl)cc2)NC(=O)N1CCCCCC(=O)O (stereo unspecified) | 7
CC(=NCCc1c(C)[nH]c2ccc(OC(F)(F)F)cc12)C1=C(O)CC(c2ccccc2)CC1=O (stereo unspecified) | -1
Cc1c(Cl)cccc1NC(=S)N(CCCN1CCOCC1)Cc1ccco1 | 15
Cc1cc(NC(=O)c2ccccc2)n(C(C)(C)C)n1 | 24

Compound activity (PubChem BioAssay)
